VDR inhibitor: inhibitors of human vitamin D receptor. VDR-SRC2-3 peptide fluorescence polarization, 2 h. Potency, µM, without a hit: max response, negative = inhibition, actives largely listed as inhibitors. 400,000 tested, 0.93% active. AID 504847; active means well fitted inhibition curve with a large enough effect; inconclusive means small, poorly fitted or top-dose-only effect, or another doubt; inactive means no such curve, though single readings can be large or run the other way; further: series mostly up to about 120 µM
Target sequence (P11473 whole entry, looked up): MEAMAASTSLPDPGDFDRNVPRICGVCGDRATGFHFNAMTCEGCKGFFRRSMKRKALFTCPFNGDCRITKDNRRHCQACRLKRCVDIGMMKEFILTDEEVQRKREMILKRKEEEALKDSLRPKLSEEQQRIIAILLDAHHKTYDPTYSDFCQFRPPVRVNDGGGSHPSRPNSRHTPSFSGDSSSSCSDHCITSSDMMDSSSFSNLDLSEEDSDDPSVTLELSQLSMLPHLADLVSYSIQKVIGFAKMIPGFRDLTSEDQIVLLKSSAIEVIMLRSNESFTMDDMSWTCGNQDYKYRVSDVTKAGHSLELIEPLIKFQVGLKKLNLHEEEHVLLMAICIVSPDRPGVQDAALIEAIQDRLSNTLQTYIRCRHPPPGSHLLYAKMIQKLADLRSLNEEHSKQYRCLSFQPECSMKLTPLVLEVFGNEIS
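FP read-out; VDR + SRC2-3 coactivator peptide; 23 nl compound by pintool; 2 h RT incubation; reagents held at 4 deg C, protected from light.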
* = called active by the depositor; ? = inconclusive; & = joins results of further samples; [ ] = remark or other dose. On the % scale 0 is the no-effect control and ±100 the full control effect; potency means the concentration at half of the fitted maximal effect. Some of the compounds tested (hit frequency here may not be typical).

structure,VDR inhibitor
CC(C)(CNC(=O)c1ccc(NS(=O)(=O)c2ccc(F)cc2)cc1)N1CCOCC1,9%
CN(C)c1cc[n+](CC(=O)c2ccc(OC(F)F)cc2)cc1,2%
COc1ccc(Cl)cc1NC(=O)CSC1=Nc2ccccc2C2=NC(CCC(=O)NCc3ccco3)C(=O)N12 (centres undefined),0%
Cc1nc(C(=O)N2CCCC(N3CCN(c4ccccc4C)CC3)C2)cs1 (centres undefined),-3%
CC(NC(=O)Cn1c(NCCO)nc2ccccc21)c1ccccc1 (centres undefined),13%
Cc1cccc(C)c1OCc1nnc(SCC(=O)Nc2nccs2)n1-c1ccccc1,-9%
Cc1ccc(-c2cc(C(=O)N/N=C/c3c[nH]c4ccccc34)[nH]n2)cc1,-14%
O=C(Nc1ccc(S(=O)(=O)N2CCCC2)cc1Cl)C1=COCCO1,5%
COc1ccc(N(CC(=O)N2CCC(C)CC2)S(=O)(=O)c2c(C)nn(C)c2C)cc1,-10%
Cc1ccc(C)c(Nc2cc(C(=O)NCCCN(C)C3CCCCC3)c3ccccc3n2)c1,-14%
Cc1ccc2c(C)cc(=S)[nH]c2c1,-13%
COC(=O)[C@H](C)NC(=O)c1cc2c(cn1)[nH]c1ccccc12,22µM*
COC(=O)c1nn(-c2ccccc2)c(Sc2ccc(OC)cc2)c1/C=N/O,-1%
CCOC(=O)N/N=C(C)/C=C/c1ccccc1,-13%
O=C(NC1(C(F)(F)F)NC(=O)N(Cc2cccnc2)C1=O)c1ccc(F)cc1 (centres undefined),4%
Cc1ccc(SCCC(=O)Nc2ccc(Br)c(C)c2)cc1,-12%
CC(=O)c1ccc(OCC(=O)Nc2ccc3nc(C)sc3c2)cc1,?
CC(=O)OC[C@H]1O[C@@H](Oc2cc3ccc(=O)oc3cc2OC(C)=O)[C@H](OC(C)=O)[C@@H](OC(C)=O)[C@@H]1OC(C)=O,7%
CCCCNc1nc(C)c(C(C)=O)cc1C#N,10%
O=C(c1cccnc1)N1CCN(C(=O)c2cccc(Cl)c2)CC1,2%
COC(=O)c1ccc(COC(=O)c2ccc(N(C)C)cc2)cc1,-5%
CCCC(=O)NCCc1cc(OC)c(OC)cc1Br,4%
CC(O)[C@H]1CNC(=O)C(=O)N1CC1CCCCC1 (some centres undefined),-9%
CCOc1cc(/C=N/Nc2nnc(C)n2N)ccc1OC(C)=O,-22%
CCc1ccc(-c2cn3c(n2)sc2cc(C(=O)NCCc4ccc(OC)cc4OC)ccc23)cc1,9%

No new results follow: entries from further up.
structure,VDR inhibitor
CC(C)(CNC(=O)c1ccc(NS(=O)(=O)c2ccc(F)cc2)cc1)N1CCOCC1,9%
CN(C)c1cc[n+](CC(=O)c2ccc(OC(F)F)cc2)cc1,2%
COc1ccc(Cl)cc1NC(=O)CSC1=Nc2ccccc2C2=NC(CCC(=O)NCc3ccco3)C(=O)N12 (centres undefined),0%

(continued)
structure,VDR inhibitor
COc1ccc(NC(=O)CSc2nnc(-c3ccccc3)n2Cc2ccco2)c(OC)c1,-6%
C=CCC1NCCc2c(Br)cccc21 (centres undefined),21%
C=CCOc1c(Br)cc(CNn2cn[nH]c2=S)cc1OC,-16%
COc1ccc(C(=O)O)cc1S(=O)(=O)N1CCCc2ccccc21,16%
COc1cccc(C(=O)C2CCCN(Cc3cn(CC(N)=O)c4ccccc34)C2)c1 (centres undefined),-14%
CCOC(=O)CSc1nc(-c2ccc(OCC)cc2)cc(C(F)(F)F)c1C#N,-7%
CSc1ncc(C(=O)Nc2cccc(C)c2C)c(-c2ccccc2)n1,-4%
Cc1ccc(S(=O)(=O)/N=S(\C)C(C)C)cc1 (centres undefined),-23%
CCN(CC)CCN(C(=O)C1=COCCO1)c1nc2c(OC)ccc(OC)c2s1,-9%
Cc1ccc(S(=O)(=O)n2cnc3cc([N+](=O)[O-])ccc32)cc1C,2%
COc1ccc(NC(=O)CN2C(=O)C(C)Oc3ccccc32)cc1 (centres undefined),4%
COc1ccc(C(=O)OC(C(=O)c2ccccc2)c2ccccc2)cc1 (centres undefined),2%
CCc1ccc(CN2CCC(n3nccc3NC(=O)c3ccccc3C)CC2)cc1,42%[activator]
CC(C)(CC(=O)O)CC(=O)O,-6%
O=C(CSc1nc(=O)n2ccccc2n1)Nc1cccc2ccccc12,21%
Cc1ccc(-c2csc3nc4cc(C(=O)NC5CCC(O)CC5)ccc4c(=O)n23)cc1 (centres undefined),-8%
Oc1ccc(Br)cc1-c1cc(-c2ccc(Cl)cc2)n[nH]1,14%
CCC(=O)Nc1ccc(N2CCCCC2)c(C(=O)Nc2ccccc2C)c1,-13%
CCN(C(=O)COC(=O)Cn1cnc2c1c(=O)n(C)c(=O)n2C)C1CCS(=O)(=O)C1 (centres undefined),-1%
Cc1cccc(C(=O)NC2C(=O)NNC2c2ccc(Cl)cc2)c1 (centres undefined),?
N#CCCN(CCC#N)c1nncs1,-1%
O=C(CCS(=O)(=O)c1ccc2c(c1)NC(=O)CS2)NCCc1ccc(Cl)cc1,?
CCCCN1CCc2c1nc1ccc(Br)cc1c2N,10%
Cc1cc(C)c(C#N)c(SCCS(=O)(=O)c2ccc(C(C)(C)C)cc2)n1,-29%
CC(Sc1nnc(-c2ccccc2F)o1)C(=O)Nc1ccc(N2CCOCC2)cc1 (centres undefined),1%

Entries from the list above that have bromine (6):
structure,VDR inhibitor
Cc1ccc(SCCC(=O)Nc2ccc(Br)c(C)c2)cc1,-12%
CCCC(=O)NCCc1cc(OC)c(OC)cc1Br,4%
C=CCC1NCCc2c(Br)cccc21 (centres undefined),21%
C=CCOc1c(Br)cc(CNn2cn[nH]c2=S)cc1OC,-16%
Oc1ccc(Br)cc1-c1cc(-c2ccc(Cl)cc2)n[nH]1,14%
CCCCN1CCc2c1nc1ccc(Br)cc1c2N,10%

(listing goes on)
structure,VDR inhibitor
COc1ccccc1N(C)S(=O)(=O)c1ccc(C(=O)OCC(=O)NCC(F)(F)F)cc1,-4%
Cc1ccc(CNC(=O)C2CCCN(S(=O)(=O)c3ccc4c(ccn4C)c3)C2)cc1 (centres undefined),-3%
C=C(C)C1CC=C(C)/C(=N\NC(=O)CCC(=O)Nc2ccc(C)c(C)c2)C1 (centres undefined),-9%
CCOc1ccc(CCNC(=O)c2nccnc2C(=O)O)cc1OCC,-4%
Nc1cc2ccncc2c2ccccc12,-5%
O=C(O)c1ccc2c(c1)C(=O)N(C(Cc1ccccc1)C(=O)O)C2=O (centres undefined),-6%
Cc1ccc(N=C2NC(=O)/C(=C/c3cccn3C)S2)c(C)c1,16%
O=S(=O)(NC1=NCCCCC1)c1ccccc1Cl,5%
Cc1cc(NC(=O)c2ccccc2F)nc2c1c(=O)oc1ccccc12,-10%
O=C(C[n+]1cccc(CNC(=O)c2ccc(OC(F)F)cc2)c1)Nc1ccc(F)cc1,0%
CCC(C)(C)n1nnnc1CN1CCC(NC(=O)c2ccc(Br)cc2)CC1,8%
Cc1cccc(C)c1NC(=O)CN(C)S(=O)(=O)c1ccc2c(c1)n(C)c(=O)c(=O)n2C,7%
S=c1[nH]nc(CN2CCCCC2)n1-c1ccc(Cl)cc1,-12%
C=CCNC(=O)C12CC3CC(C1)CC(C(=O)NCC=C)(C3)C2,-1%
CCc1ccc(C2CC(c3cccc(OC)c3)n3nc(N)nc3N2)cc1 (centres undefined),-8%
CCCCCCn1c(=O)[nH]c2nc3cc(N)c(C)cc3nc2c1=O,?
COc1ccc(-n2cnc3cc([N+](=O)[O-])ccc32)cc1,-4%
COc1ccc(C(C)=O)cc1COc1cccc2cccnc12,-13%
O=c1[nH]nc(CNc2ccc(O)cc2)c2ccccc12,?
CCOC(=O)C1CCN(S(=O)(=O)c2cccc(-c3cn4ccccc4n3)c2)CC1,11%
COC(=O)c1cnc(N2CCCN(S(=O)(=O)c3ccccc3)CC2)nc1C(F)(F)F,2%
CCn1nc(C)c(Br)c1Nc1ccc(Br)cc1,-29%
Cc1ccc(-n2nc(C(=O)Nc3ccc(F)cc3Cl)c(=O)n(C)c2=O)cc1,4%
Cc1ccc(S(=O)(=O)/N=C(\N)Nc2nc(C)c3ccc(C)cc3n2)cc1,-2%
O=C(Nc1ccc(F)cc1)N(Cc1ccco1)Cc1cc2cc3c(cc2[nH]c1=O)OCO3,11%
Cc1cccc(NC(=O)CSCc2c(C)noc2C)c1C,3%
COc1cc(CN2CCNC(=O)C2CC(=O)NC2CCCC2)cc(OC)c1 (centres undefined),7%
CCOc1ccc(N(CC(=O)NC2CCCCCC2)S(=O)(=O)c2c(C)[nH]c(=O)[nH]c2=O)cc1,5%
CCC(C)(C)NC(=O)C(c1ccc(OC)cc1)N(C(=O)CCC(=O)Nc1cc(C)on1)c1ccccc1OC (centres undefined),3%
O=C(CN1C(=O)C2CC=CCC2C1=O)Nc1ccc(S(=O)(=O)NC2=NCCCCC2)cc1 (centres undefined),14%
O=C(Cc1ccccc1Cl)Nc1ccc(S(=O)(=O)N2CCOCC2)cc1,-8%
CCn1cc(C(=O)NCCCOC)c(=O)c2cc(S(=O)(=O)N3CCc4ccccc4C3)ccc21,2%
CC1CCC(NC(=O)c2cc(C3CC3)nn2-c2ccccc2)CC1 (centres undefined),-6%
O=C(Cc1cccc(NC(=O)C2CCCN(C(=O)C3CCCC3)C2)c1)Nc1cccc(C(=O)N2CCCCC2)c1 (centres undefined),5%
O=Cc1ccc(OCCCOc2cccc3cccnc23)cc1,-15%
COc1ccc2cc(C3(C)NC(=O)N(CC(=O)NCCC4=CCCCC4)C3=O)ccc2c1 (centres undefined),3%
Cc1nc(C)c(C(=O)C2=C(O)C(=O)N(CCN(C)C)C2c2ccco2)s1 (centres undefined),-10%
Cc1cc(C)n(Cc2cnc(N3CCOCC3)s2)n1,-12%
CC(C)c1ccc(NC(=O)c2cc(S(=O)(=O)NCc3ccccc3Cl)ccc2F)cc1,10%
O=c1[nH]n(-c2ccccc2)c(=O)c2ccccc12,-15%
CCCCn1cnc2c(=O)[nH]c(N)nc21,-2%
Cc1cccc(NC(=O)COC(=O)CCCC2=NS(=O)(=O)c3ccccc3N2)c1,-13%&9%
CCc1nc2ccccc2n1Cc1ccc(F)cc1,9%
COc1ccc(C2C(C(=O)Nc3ccccc3OC)=C(C)Nc3ncnn32)cc1 (centres undefined),-1%
COc1ccc(CCC(=O)OCC(=O)c2ccc(C)cc2)cc1,-1%
COC(=O)c1cc(NC(=O)c2ccco2)ccc1N1CCOCC1,-4%
CCCCN1Cc2cc(C(=O)c3cc(OC)ccc3O)cnc2NC1=O,3%
O=C(CSc1nc(=O)n2ccccc2n1)N1CCCCCC1,3%
CC(=O)N1CC(C)Sc2ccc(S(=O)(=O)NCc3ccc(Cl)cc3)cc21 (centres undefined),-1%
CCc1ccccc1NC(=O)CN(c1cccc(OC)c1)S(C)(=O)=O,30%

(list continues)
structure,VDR inhibitor
Cc1ccc(S(=O)(=O)N2CCCc3cc(NC(=O)c4c(F)cccc4F)ccc32)cc1,-14%&4%
N#Cc1ccc(COC(=O)C2CC(=O)N(CCc3ccccc3)C2)cc1 (centres undefined),-10%
CCOc1cc(CNCCc2ccc(S(N)(=O)=O)cc2)cc(Cl)c1OCc1ccccc1,11%
Cc1ccc(Nc2cc(C(=O)NC3CCCC3)c3ccccc3n2)cc1C,5%
COc1ccc(S(=O)(=O)N(CC(=O)N2CCOCC2)c2ccc(F)cc2)cc1OC,-15%
CCN(CC)C(=O)COc1c(-c2ccco2)oc2ccccc2c1=O,-19%
CCOC(=O)C1=C(Nc2ccc(OC)cc2)OCC1=O,4%
CCOC(=O)c1cc2occc2n1CC(=O)NCCOC,10%
CC(C)Nc1ncnc2c1cnn2-c1ccc(Cl)cc1,-12%
COc1ccc(OC)c(CN2CCN(c3ccccc3OC)CC2)c1,13%
CCSc1nnc(-c2ccccc2N=Cc2c(C)[nH]n(-c3ccccc3)c2=O)c(=O)[nH]1,-12%
C=CCN1C(=O)/C(=c2\sc3nc(=O)c(Cc4ccccc4Cl)nn3c2=O)c2ccccc21,35µM*
O=C(CCN1C(=O)C2CC=CCC2C1=O)Nc1cccc(Cl)c1 (centres undefined),-2%
COc1cccc(CC(=O)Nc2nc3c(s2)C(=O)CC(C)(C)C3)c1,-7%
CCOC(=O)N1CCN(C(=O)C2CCC(=O)N(Cc3ccc(Cl)cc3)C2)CC1 (centres undefined),-14%
COC(=O)c1cc(S(=O)(=O)NCCCc2ccco2)c[nH]1,2%
COc1ccc(-c2cc(C(=O)Nc3cc(Cl)ccc3OC)no2)cc1,-7%
Cc1ccc(C)c(OCC(O)CN2CCc3ccccc3C2)c1C (centres undefined),-17%
COc1ccc(S(=O)(=O)N2CC=C(C(=O)Nc3ccc(NC(C)=O)cc3)CC2)cc1,-18%
Nc1ccc2oc3ccc(N)cc3c(=O)c2c1,6%
Cc1ccc(Cl)cc1NC(=O)CNC(=O)N1CC(=O)Nc2ccccc21,2%
Cc1cccc(-c2noc(-c3ccccc3NC(=O)C3CC(=O)N(c4ccccc4C)C3)n2)c1 (centres undefined),6%

Screening results: PubChem, National Center for Advancing Translational Sciences (NCATS)
